CBX7 inh: CBX7 inhibition, primary AlphaScreen; 66,000 tested, 1.1% active; O95931; AlphaScreen His6-CBX7 / biotin-H3K27me3 peptide binding; hits give low values; AID 1224903; normalised signal (fraction of DMSO) (concentration not given with the values); in the data active = normalised signal below about 0.5;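 note: 100 nL library stock added to about 20 µL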
Target sequence (O95931 whole entry, looked up): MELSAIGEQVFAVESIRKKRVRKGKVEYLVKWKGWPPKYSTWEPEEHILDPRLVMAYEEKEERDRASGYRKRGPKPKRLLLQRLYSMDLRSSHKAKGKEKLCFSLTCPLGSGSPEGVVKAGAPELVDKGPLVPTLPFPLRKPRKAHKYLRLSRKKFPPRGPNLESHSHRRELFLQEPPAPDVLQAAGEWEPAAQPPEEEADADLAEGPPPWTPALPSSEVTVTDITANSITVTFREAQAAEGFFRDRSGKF
CBX7 inh z-score: second read-out of CBX7 inh, no call of its own (marks repeat the call); z-score; measured here: z-score of CBX7 signal; some inactives read as strong as hits; reference of the scale not given here;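 same signal on another scale; lower means less binding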
* hit, by the source's call. An excerpt; the hit share may differ from the screen's.

Each structure is followed by: CBX7 inh, CBX7 inh z-score
Cc1cc(C)n2c(Nc3ccccc3C)c(-c3ccccn3)nc2n1
 : 1.07, 0.803
CCCOc1ccc(-c2nc(Nc3ccc(F)cc3)c3ccccc3n2)cc1
 : 1.16, 0.757
Clc1ccc(-c2nnc(-c3cccnc3)o2)cc1
 : 1.04, 0.575
CCCCCCCOCC(O)Cn1c2ccccc2c2ccccc21 (stereo not drawn)
 : 1.15, 5.38
COc1ccc(CCNC(=O)c2cc(C(C)C)on2)cc1OC
 : 0.998, -0.0195
COc1cccc(NC(=O)Cn2cc(S(=O)(=O)c3ccc(C)c(C)c3)c(=O)c3ccccc32)c1
 : 0.844, -2.18
COc1ccc(-n2cc(C(=O)Nc3cc(C)c(Cl)cc3OC)c3ccccc3c2=O)cc1
 : 0.986, -0.463
COc1ccc(S(=O)(=O)N2CC=C(C(=O)Nc3nc4ccc(OC)cc4s3)CC2)cc1
 : 0.994, -0.263
OC(CC#CN1CCCCC1)(c1ccccc1)C1CCCC1 (stereo not drawn)
 : 1.09, 2.5
CCOC(=O)C1CCCN(c2c(N3CCN(CC)CC3)c(=O)c2=O)C1 (stereo not drawn)
 : 1.02, 0.805
CCCCOc1ccc(C(=O)Nc2nnc(COc3cc(C)ccc3C(C)C)s2)cc1
 : 1.18, 0.742
Cc1ccc(-n2cc(-c3ccc4c(c3)OCO4)nc2SCC(=O)Nc2ccc3c(c2)OCO3)cc1
 : 0.851, -1.13
O=C(Nc1nc2ccccc2n1CCN1CCCCC1)c1ccc(Cl)cc1
 : 1.04, 1.74
CCCCN(C)C(=O)c1c[nH]c2ccc(S(=O)(=O)N(CC)c3cccc(C)c3)cc2c1=O
 : 1.09, 1.03
Cc1ccc(CN2C(=O)c3ccccc3Sc3ccc(C(=O)NC4CC4)cc32)cc1
 : 0.854, -1.45
O=C1CC2c3ccccc3C1C1C(=O)N(c3cccnc3)C(=O)C21 (stereo not drawn)
 : 1.05, 1.91
CN(Cc1ccccc1)C(=O)C1C2C=CC(C2)C1C(=O)O (stereo not drawn)
 : 1.01, 0.478
CN(CCNC(=O)Cn1nc(Cc2cccnc2)c2ccccc2c1=O)C1CCCCC1
 : 1.3, 2.85
CC1CCN(c2nc3ccc(C(=O)NC4CC4)cc3s2)CC1
 : 0.972, -0.602
COc1ccc(CNc2nc3ccccc3c3nc(-c4ccccc4)nn23)cc1
 : 1.08, 1.42
COc1ccc(NC(=O)Cn2ncc3c2-c2cc(C)ccc2OC3)c(OC)c1
 : 0.969, -0.779
CCOCCCNC(=O)CN1C(=O)CSc2ccccc21
 : 0.952, -0.836
Cc1cccc(-c2noc(CN(C(=O)c3ccc(C)cc3C)C(C)C)n2)c1
 : 0.675, -3.22
O=C(CCCC1=NS(=O)(=O)c2ccccc2N1)Nc1ccc(-c2ccccc2)cc1
 : 0.608, -2.98
CCOc1ccccc1NC(=O)c1c(NCc2ccncc2)sc2c1CCCCC2
 : 0.718, -14.6
O=C(Cn1ncc2c1-c1ccccc1OC2)Nc1ccc2c(c1)OCCO2
 : 0.891, -1.56
Cc1ccc(-n2c(Cc3cccn3C)nnc2SCC(=O)Nc2cc(C)ccc2C)cc1
 : 0.829, -4.09
Nc1ccc(Cl)cc1-c1nc2ccccc2[nH]c1=O
 : 0.964, -0.0892
CCOc1ccc(NC(=O)CN2C(=O)CSc3ncccc32)cc1
 : 1.01, 0.272
CCC(C)NC(=O)c1cnn(-c2ccccc2)c1-n1cccc1 (stereo not drawn)
 : 1.08, 3.14
COc1cc(OC)cc(-n2nc(C(=O)Nc3cc(OC)ccc3OC)c3ccccc3c2=O)c1
 : 0.955, -1.21
CC1CCCCN1C(=O)c1ccc2c(c1)N(Cc1cccc(Cl)c1)C(=O)c1ccccc1S2=O (stereo not drawn)
 : 0.688, -1.96
Cc1ccc(NC(=O)Cc2cn(C)c3ccccc23)nc1
 : 0.899, -3.5
Cn1cc(C(=O)NCCCN2CCOCC2)c2c3ccccc3n(C)c2c1=O
 : 1.02, 0.134
O=C(Nc1ccc2oc(-c3cccc(Cl)c3Cl)nc2c1)c1ccc(F)cc1
 : 0.986, -0.225
CCc1nnc(NC(=O)c2ccc(S(=O)(=O)N3CCCCC3C)cc2)o1 (stereo not drawn)
 : 0.783, -4.9
CCOc1ccc2nc(C)cc(Nc3ccc(N(C)C)cc3)c2c1
 : 0.699, -2.89
CC(=O)N1c2ccc(S(=O)(=O)NCc3ccc(C)cc3)cc2CC1C (stereo not drawn)
 : 0.997, -0.165
CC(C)CCNC(=O)c1ccc2c(c1)N(Cc1cccc(Cl)c1)C(=O)c1ccccc1S2=O (stereo not drawn)
 : 0.94, -0.374
COc1cccc(CNC(=O)c2cc(=O)[nH]c3ccc(S(=O)(=O)N4CCCCCC4)cc23)c1
 : 0.988, -0.167
Cc1nc2c(C(=O)NCc3ccc(F)cc3)c[nH]n2c(=O)c1Cl
 : 0.963, -0.228
O=C(Nc1nnc(-c2cccnc2)s1)c1ccccc1
 : 1.15, 1.42
COc1ccc(C(=O)Nc2nc3ccc4nc(C)sc4c3s2)cc1
 : 0.917, -1.33
COc1ccc(CCNC(=O)c2sc3ncn(CC(=O)N4CCOCC4)c(=O)c3c2C)cc1OC
 : 1.05, 0.339
CCCOc1ccc(C2CC(=O)Nc3cc(OC)c(OC)cc32)cc1 (stereo not drawn)
 : 0.745, -2.05
CCOc1ccc(CCNC(=O)c2cn(C)c(=O)c3cc(OC)c(OC)cc23)cc1OCC
 : 0.957, -1.12
Cc1cc(N2CC(C)CC(C)C2)nc2ccc(NC(=O)CCC(=O)N(C)Cc3ccccc3)cc12 (stereo not drawn)
 : 1.04, 1.93
Clc1ccc(OCc2nc(-c3ccncc3)no2)c(Cl)c1
 : 1.18, 1.27
CCOCCCNC(=O)c1c[nH]c2ccc(S(=O)(=O)Nc3ccccc3CC)cc2c1=O
 : 0.942, -0.731
O=C(Nc1cccc(Cl)c1)Nc1ccc(N2CCOCC2)c(C(F)(F)F)c1
 : 1.06, 0.405
CCc1nc(SCC(=O)c2ccc(NC(C)=O)cc2)n[nH]1
 : 1.1, 0.195
CCCCCNC(=O)c1c[nH]c2ccc(S(=O)(=O)N3CCC4(CC3)OCCO4)cc2c1=O
 : 0.996, -0.0488
CCOC(=O)c1c(NC(=O)c2cccc(F)c2)sc(C(=O)Nc2ccccc2F)c1C
 : 1.05, 0.0514
COc1ccccc1CNC(=O)c1sc2ncn(Cc3cccc(F)c3)c(=O)c2c1C
 : 0.917, -0.563
CCC1Oc2ccccc2N(CC(=O)NCc2ccccc2OC)C1=O (stereo not drawn)
 : 1.02, 1.08
COc1cccc(-c2nn(C)c3sc(C(=O)Nc4ccc(C(F)(F)F)cc4)cc23)c1
 : 0.872, -1.65
Cc1ccc(NC2c3ccccc3C(=O)N2c2ccccc2C)c(C)c1 (stereo not drawn)
 : 0.88, -4.03
CCOC(=O)c1c(NC(=O)COc2ccc(-c3ccccc3)cc2)sc(C)c1C
 : 1.15, 2.41
CC(C)Sc1oc(-c2cccs2)nc1S(=O)(=O)c1ccccc1
 : 1.21, 1.51
O=C(CC(C(=O)N1CCc2ccccc21)n1ccnc1)N1CCCC1 (stereo not drawn)
 : 0.977, -0.521

More compounds follow.
Each structure is followed by: CBX7 inh, CBX7 inh z-score
CC(C)OCCCNC(=O)CC(C(=O)N1CCc2ccccc21)n1ccnc1 (stereo not drawn)
 : 0.982, -0.442
COc1ccc(NC(=O)c2sc3nc(-c4ccc(OC)cc4)cn3c2C)cc1
 : 1.07, 1.21
COc1ccc(N2C(=O)C3C4C=CC(C)(O4)C3C2=O)cc1 (stereo not drawn)
 : 1.14, 2.22
CC(C)OCCCNC(=O)CN1N=C(c2ccccc2)CCC1=O
 : 1.04, 0.567
COC(OC)C12c3ccccc3C(c3ccccc31)C1C(=O)N(c3cccnc3)C(=O)C12 (stereo not drawn)
 : 0.89, -1.42
CCCCNC(=O)c1sc2ncn(CC(=O)Nc3ccc(C)c(Cl)c3)c(=O)c2c1C
 : 0.996, -0.142
O=S(=O)(c1ccc(Cl)cc1)c1nc(-c2ccc(Cl)cc2)oc1NCc1ccccc1
 : 0.88, -0.518
CN(c1ccc(F)cc1)S(=O)(=O)c1ccc2[nH]cc(C(=O)NC3CCCC3)c(=O)c2c1
 : 0.913, -0.813
Cc1cccc(NC(=O)c2ccc(N3C(=O)c4ccccc4C3=O)cc2)c1
 : 1, 0.0046
Clc1ccc(-c2nc(-c3cccs3)no2)cc1Cl
 : 1.15, 7
CCN1CCN(c2cc(C)c3cc(NC(=O)COc4ccc(Cl)cc4)ccc3n2)CC1
 : 1.12, 0.802
COc1cccc(-c2nc(CS(=O)(=O)CC(=O)Nc3ccc(C)c(Cl)c3)c(C)o2)c1
 : 1.03, 0.523
CCOc1ccc(NC(=O)NCCN2C(C)CCCC2C)cc1 (stereo not drawn)
 : 0.856, -1.55
CC(C)NC(=O)c1nnc(Cc2ccc(Cl)cc2)o1
 : 1.05, 1.87
CCCCN(CC)C(=O)c1oc2ccc(S(=O)(=O)N3CCCC3)cc2c1C
 : 1.08, 3.25
COc1ccc(Br)cc1CNC(=O)c1cc2occc2n1C
 : 0.833, -4.44
O=C(CCCn1c(=O)[nH]c2ccc(Br)cc2c1=O)NCc1cccc(Cl)c1
 : 1.07, 2.12
Cc1ccc(NC(=O)c2oc3ccc(S(=O)(=O)N4CCOCC4)cc3c2C)cc1Cl
 : 1.02, 0.283
C=CCN1C(=O)C(O)(CC(=O)c2cccnc2)c2cc(Br)ccc21 (stereo not drawn)
 : 0.966, -0.0446
Cn1cnc2cc(NS(=O)(=O)c3ccccc3)ccc21
 : 1.04, 1.29
C=CCn1c(-c2nonc2N)nc2ccccc21
 : 1.04, 0.461
O=C(Nc1ccccc1C(F)(F)F)N1CCN(c2ccc3nnc(-c4ccc(F)cc4)n3n2)CC1
 : 0.848, -2.13
CCOc1cc2c(cc1OCC)C(c1ccccc1OC(F)F)NCC2 (stereo not drawn)
 : 1.06, 1.02
COc1ccc(OC)c(N2CC(c3nc4ccccc4n3CC(C)C)CC2=O)c1 (stereo not drawn)
 : 0.947, -0.331
CC1CCC(NC(=O)c2cc3c(s2)-c2ccccc2OC3)CC1 (stereo not drawn)
 : 1.58, 8.11
Cc1ccc(C)c(-c2csc(NC(=O)CN3C(=O)CCC3=O)n2)c1
 : 1.04, 0.34
Cc1ccc(-c2noc(CCC(=O)N(C)c3cc(C)ccc3C)n2)cc1
 : 1.05, 1.84
Cn1cc(CC(=O)NC2CCCC2)c2ccccc21
 : 1.01, 0.429
COc1ccc2nc(NC(=O)CN(c3ccc(C)cc3)S(=O)(=O)c3c(C)noc3C)sc2c1
 : 0.981, -0.159
COc1cc2ccccc2cc1-c1nnc(-c2ccc(Cl)cc2Cl)o1
 : 1.15, 2.64

Compounds shown so far with an NH in an aromatic ring, in the order listed:
Each structure is followed by: CBX7 inh, CBX7 inh z-score
CCCCN(C)C(=O)c1c[nH]c2ccc(S(=O)(=O)N(CC)c3cccc(C)c3)cc2c1=O
 : 1.09, 1.03
Nc1ccc(Cl)cc1-c1nc2ccccc2[nH]c1=O
 : 0.964, -0.0892
COc1cccc(CNC(=O)c2cc(=O)[nH]c3ccc(S(=O)(=O)N4CCCCCC4)cc23)c1
 : 0.988, -0.167
Cc1nc2c(C(=O)NCc3ccc(F)cc3)c[nH]n2c(=O)c1Cl
 : 0.963, -0.228
CCOCCCNC(=O)c1c[nH]c2ccc(S(=O)(=O)Nc3ccccc3CC)cc2c1=O
 : 0.942, -0.731
CCc1nc(SCC(=O)c2ccc(NC(C)=O)cc2)n[nH]1
 : 1.1, 0.195
CCCCCNC(=O)c1c[nH]c2ccc(S(=O)(=O)N3CCC4(CC3)OCCO4)cc2c1=O
 : 0.996, -0.0488
CN(c1ccc(F)cc1)S(=O)(=O)c1ccc2[nH]cc(C(=O)NC3CCCC3)c(=O)c2c1
 : 0.913, -0.813
O=C(CCCn1c(=O)[nH]c2ccc(Br)cc2c1=O)NCc1cccc(Cl)c1
 : 1.07, 2.12

New compounds follow
canonical_smiles	CBX7 inh	CBX7 inh z-score
CCOC(CNC(=O)c1ccc2c(c1)ncn2-c1cc(Cl)ccc1OC)OCC	0.927	-0.911
CCc1cccc(OCC(=O)Nc2ccc(S(=O)(=O)Nc3ncccn3)cc2)c1	0.918	-2.91
O=C(CSc1n[nH]c(-c2ccncc2)n1)c1ccc(Cl)cc1	0.936	-0.13
COC(=O)c1c(C)n(CCC2=CCCCC2)c2c1cc(O)c1ccccc12	0.932	-0.771
COc1ccc(C(=O)NCCc2nc3ccccc3n2Cc2ccccc2F)cc1OC	1.41	3.03
CCN(CC)c1nc(C)nc2sc(C(=O)Nc3ccc(F)cc3F)c(C)c12	1.03	0.732
O=C(O)CCC(=O)N1CCc2cc(S(=O)(=O)N3CCCCC3)ccc21	0.967	-1.08
COc1ccc(NS(=O)(=O)c2ccc3c(c2)CCC(=O)N3)cc1Cl	1.03	1.18
CC(=O)Nc1ccc(S(=O)(=O)NCCSc2nc3ccccc3s2)cc1	0.85	-1.8
CCOCCCNc1ncc2c(n1)CC(c1ccccc1)CC2=O (stereo not drawn)	1.02	0.714
CC(=O)N(CCC(c1ccccc1)c1ccc2c(c1)OCO2)Cc1ccc(OC(C)C)cc1 (stereo not drawn)	0.968	-0.888
Cc1oc(-c2cccs2)nc1C(=O)NC1CCCC1	0.884	-0.267
CCOC(=O)c1ccc(NC(=O)CC2Nc3ccccc3NC2=O)cc1 (stereo not drawn)	0.937	-1.9
CC1CCN(C(=O)c2ccccc2NC(=O)c2cccc(S(=O)(=O)N3CCOCC3)c2)CC1	1.08	1.25
Cc1oc(-c2cccc(Cl)c2)nc1CN1CCC(C(=O)NC2CC2)CC1	0.991	-0.22
CCC1=Nc2cc(C(=O)NCC(OC)OC)ccc2Sc2ccccc21	0.965	-0.419

A different layout for some results above.
molecule: COc1ccc(S(=O)(=O)N2CC=C(C(=O)Nc3nc4ccc(OC)cc4s3)CC2)cc1
  CBX7 inh = 0.994
  CBX7 inh z-score = -0.263

molecule: CCc1nnc(NC(=O)c2ccc(S(=O)(=O)N3CCCCC3C)cc2)o1 (stereo not drawn)
  CBX7 inh = 0.783
  CBX7 inh z-score = -4.9

Screening data deposited in PubChem BioAssay by several laboratories.
